VDR inhibitor – Inhibitors of the vitamin D receptor (VDR): qHTS | Vitamin D3 receptor (Homo sapiens), P11473 | VDR-SRC2-3 peptide fluorescence polarization, 2 h | Potency, µM, without a hit: max response, negative = inhibition, most hits filed as inhibitors | actives 0.93% (n = 400,000) | AID 504847, 2011; active = well fitted inhibition curve with a large enough effect; inconclusive = small, poorly fitted or top-dose-only effect, or another doubt; inactive = no such curve, though single readings can be large or run the other way; also: series mostly up to about 120 µM
Target sequence (P11473 whole entry, looked up): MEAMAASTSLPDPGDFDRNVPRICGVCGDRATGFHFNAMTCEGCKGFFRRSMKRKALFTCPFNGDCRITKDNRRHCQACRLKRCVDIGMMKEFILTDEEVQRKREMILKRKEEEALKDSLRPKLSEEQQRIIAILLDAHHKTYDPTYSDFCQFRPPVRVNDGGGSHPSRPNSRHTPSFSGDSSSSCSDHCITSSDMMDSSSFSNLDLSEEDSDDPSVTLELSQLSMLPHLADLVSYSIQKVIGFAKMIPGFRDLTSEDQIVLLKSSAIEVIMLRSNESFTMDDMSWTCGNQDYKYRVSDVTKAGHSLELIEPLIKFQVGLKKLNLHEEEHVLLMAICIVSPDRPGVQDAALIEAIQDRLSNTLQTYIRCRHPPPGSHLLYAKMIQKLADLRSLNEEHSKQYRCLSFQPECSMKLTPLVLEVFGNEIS
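Compounds are added to VDR with labelled SRC2-3 coactivator peptide and held 2 h at room temperature. Inhibition of the VDR–peptide interaction is then read as a change in fluorescence polarization.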
* hit, by the source's call; u = inconclusive; & = joins results of further samples. % is scaled to controls: 0 for no effect and ±100 for the full control effect; potency is read from the fitted curve at half-maximal effect. An excerpt; rates above refer to the full screens.

VDR inhibitor	smiles
2.9%	COc1ccccc1NC(=O)COc1ccc2c(c1)OCO2
-16.7%	Cc1cccc(C)c1NC(=O)c1ccc(-n2cncn2)nc1
-7.8%	COc1ccc(C2CC(C(F)(F)F)n3ncc(C(=O)Nc4c(C)n(C)n(-c5ccccc5)c4=O)c3N2)cc1 (configuration not stated)
11.2%	COc1ccccc1-c1nc2c(c(SCC(=O)Nc3c(C)cc(C)cc3C)n1)Cc1c(CO)cnc(C)c1O2
-21.3%	Cc1ccc(NC(=O)CSc2nc(O)cc(=O)n2-c2ccc(C)cc2)cc1
9.0%	Cc1cccc(-n2ncc3c(N4CCN(c5ccccc5)CC4)ncnc32)c1
11.7%	CC(=O)Nc1cccc(C(=O)OCCCOc2ccc(F)cc2)c1
-5.3%	N/C(=N/OC(=O)c1ccc(Cl)cc1)c1ncc([N+](=O)[O-])s1
9.6%	O=C(O)c1cccc2c1/C(=N/O)c1ccccc1-2
-3.1%	COc1ccc(Nc2nnc(SCC(=O)Nc3ccc4[nH]c(=O)[nH]c4c3)s2)cc1
6.9%	O=C1NC(Cc2ccccc2)C(=O)N1Cc1cc([N+](=O)[O-])cc2c1OCOC2 (configuration not stated)
-9.6%	CC(=O)N1CCN(S(=O)(=O)c2cccc(C(=O)NC3CCC(C)CC3)c2)CC1 (configuration not stated)
-8.6%	Cc1ccc(NC(=O)CCSc2ccccn2)cc1
14.6%	CC1CCc2nc3ncn(Cc4cccc(F)c4)c(=O)c3cc2C1 (configuration not stated)
-7.3%	Cc1nn(S(=O)(=O)c2ccc([N+](=O)[O-])cc2)c(C)c1Sc1ccccc1
-0.5%	O=C(NNC(=O)c1cccs1)Nc1cccc(Cl)c1
16.3%	Cn1c(/C(C#N)=C/c2ccc(O)cc2)nc2ccccc21
-7.5%	CC1(C(=O)Nc2ccc(S(=O)(=O)Nc3ncccn3)cc2)CCCC1
-1.7%	CC(C)(C)c1nc(Sc2ccc([N+](=O)[O-])cn2)n[nH]1
0.9%	COc1cc(/C=N/NC(=O)c2cc(-c3cccn3C)n[nH]2)cc(OC)c1OC
-0.5%	O=c1c2[nH]c3ccc(Cl)cc3c2ncn1CCN1CCCCC1
-7.7%	Cn1c(SCC(=O)Nc2ccccc2F)nnc1-c1cccnc1
-0.1%	CCCCN(CCCNC(=O)c1c(C)oc2nc[nH]c(=O)c12)Cc1ccccc1
-6.8%	COc1cccc(C2c3c(oc4ccc(F)cc4c3=O)C(=O)N2CCN2CCOCC2)c1OC (configuration not stated)
9.0%	Fc1ccccc1N1CCN(c2nc3ccccc3n3nnnc23)CC1
-9.4%	Cc1oc(-c2ccc(Cl)cc2)nc1CN1CCCC(C(=O)NCc2ccccc2)C1 (configuration not stated)
8.2%	CCn1cc(S(=O)(=O)NCCc2ccccc2OC)cn1
7.0%	Cc1ccccc1OCC(=O)N=Nc1c(O)n(C)c2ccccc12
-7.3%	COc1ccc(Cc2nc(-c3ccc(Br)o3)no2)cc1OC
4.2%	CCOC(=O)/C(=N\Nc1ccccc1Cl)N1CCN(Cc2ccccc2)CC1
-17.2%	Cc1sc2ncnc(-n3nnc4ccccc43)c2c1C
-4.2%	COc1cc(C(=O)NCc2ccco2)c(Br)c(OC)c1OC
19.0%	CCOC(=O)CNC(=O)c1ccc(Cl)s1
-8.5%	CCOC(=O)c1ccc(NC(=S)N2CCSC2c2c(F)cc(F)cc2F)cc1 (configuration not stated)
12.0%	CCCCN(C)CC(O)Cn1cc(/C=C/C(=O)c2ccc(OCC)cc2)c2ccccc21 (configuration not stated)
3.0%	O=C(NCc1nc2ccccc2[nH]1)C1=C[C@@H](c2csc3ccccc23)C[C@@H](OCc2ccc(CO)cc2)O1
8.5%	COc1ccc(NC(=O)c2oc3ccccc3c2NC(=O)c2cc(=O)c3c(C)cc(C)cc3o2)cc1
8.7%	CCNc1nc(NCC)nc(Oc2ccc(N)cc2)n1
-14.4%	CS(=O)(=O)N(CC(=O)N1CCN(Cc2ccccc2)CC1)c1ccc(F)cc1
-1.4%	CC(=O)Nc1ccc(N2C(=O)c3cccc(NC(C)=O)c3C2=O)cc1
25.5%	Cc1ccc(OCCCCNC(C)c2ccccc2)c(C)c1 (configuration not stated)
10.5%	O=C(Cn1cnc2ccccc2c1=O)Nc1nnc(SCc2ccc(Cl)cc2)s1
u	O=C(c1ccncc1)N1CCC2(CCCN(c3ccc(-c4ccccc4)cc3)C2)CC1
u	[O-]c1c[n+](-c2ccc(-[n+]3cc([O-])on3)cc2)no1
4.1%	COc1ccccc1NC(=O)CSc1nnc(C2CCCCC2)n1C
7.9%	O=C(c1ccc(C(F)(F)F)cc1)C1CCCN(C(=O)c2csnn2)C1 (configuration not stated)
6.7%	C#CCOCCOCCOCCNc1nc(N2CCOCC2)nc(N2CCN(C(=O)Cn3cc(CCCCN)nn3)CC2)n1
7.8%	O=C1CS/C(=N/N=C/c2c[nH]c3ccccc23)N1
-2.1%	CS(=O)(=O)N1CCC[C@@]2(CCN(C(=O)Nc3cccc(F)c3)C2)C1
-5.2%	Cc1ccc(C(=O)CCC(=O)Nc2ccccc2C)cc1C
-5.0%	CCn1c(=O)cc(SCC(=O)NCCN2CCN(Cc3ccccc3)CC2)c2ccccc21
-3.3%	COc1ccc(NC(=O)C2(S(=O)(=O)c3ccc(C)cc3)CC2)cc1OC
-2.2%	CC12CCC(C(=O)Nc3ccccc3N3CCOCC3)(CC1=O)C2(C)C (configuration not stated)
0.2%	COc1ccc(C2=NOC(C(=O)Nc3cccc(O)c3)C2)cc1 (configuration not stated)
-7.4%	Cc1ccc(NC(=S)NCCc2c[nH]c3ccccc23)c(C)c1
8.5%	CC(C)c1nn2c(=O)cc(COC(=O)c3ccccc3NC(=O)c3cccs3)nc2s1
0.2%	CCC1Sc2ccccc2N(CC(=O)NCCC(C)C)C1=O (configuration not stated)
7.9%	CCC(=O)N1CCN(c2ccc(NC(=O)c3ccc([N+](=O)[O-])o3)cc2)CC1
2.0%	O=C(O)c1cc(NCc2cccs2)ccc1N1CCOCC1
-6.5%	C=CC[C@@H](CC(=O)N[C@H](CO)Cc1ccccc1)C(=O)N[C@H](C)COC(=O)[C@@H](CC=C)CC(=O)OC(C)(C)C

A second format for 4 compounds above.
compound | VDR inhibitor
COc1ccc(C2=NOC(C(=O)Nc3cccc(O)c3)C2)cc1 (configuration not stated) | 0.2%
C=CC[C@@H](CC(=O)N[C@H](CO)Cc1ccccc1)C(=O)N[C@H](C)COC(=O)[C@@H](CC=C)CC(=O)OC(C)(C)C | -6.5%
CCC(=O)N1CCN(c2ccc(NC(=O)c3ccc([N+](=O)[O-])o3)cc2)CC1 | 7.9%
O=C(c1ccncc1)N1CCC2(CCCN(c3ccc(-c4ccccc4)cc3)C2)CC1 | u

(listing goes on)
VDR inhibitor	smiles
-2.7%	Cc1nn(-c2ccccc2)c2nc(C(Cl)(Cl)Cl)[nH]c(=O)c12
-0.8%	CC(=O)NC(Cc1ccccc1C)C(=O)NC1CCN(c2nnnn2-c2ccccc2)CC1 (configuration not stated)
1.3%	Cc1cccc(-c2nc(CS(=O)CC(=O)NC3CCCC(C)C3C)c(C)o2)c1 (configuration not stated)
4.5%	COc1ccc(C(=O)OCCN2CCOCC2)cc1
-16.3%	O=C(c1ccc(Br)cc1)N(Cc1nc2ccccc2c(=O)[nH]1)C1CCCC1
-19.8%	CC1=C(C2=C(C)C(C(C)C)C3=C(C(=O)C(O)C3O)C2O)C(O)C2=C(C(O)C(O)C2=O)C1C(C)C (configuration not stated)
2.0%	CCOC(=O)CCCCCC(=O)Nc1ccc2c(c1)C(=O)N([C@H](C)CO)C[C@@H](C)[C@H](CN(C)S(=O)(=O)c1cn(C)cn1)O2
2.8%	CCc1ccccc1NC(=O)NC1CCCCC1
-0.4%	CN(CC(=O)Nc1ccc(F)c(F)c1F)C(=O)c1cc(S(=O)(=O)N(C)C)ccc1N1CCCC1
-1.2%	CC(=O)Nc1sc2c(c1C(c1ccncc1)N1CCOCC1)CCCC2 (configuration not stated)
-18.5%	COc1ccc(/C(C)=N/NC(=O)c2nnn(-c3nonc3N)c2-c2cccs2)cc1OC
-3.1%	Cc1ccnc(SC2CC(=O)N(c3ccc(Br)cc3)C2=O)n1 (configuration not stated)
22.4%	O=C(NCc1ccco1)c1cccc(NS(=O)(=O)c2cccc(F)c2)c1
-6.7%	COc1ccc(N=C2SCC(c3ccc([N+](=O)[O-])cc3)=NN2CCO)cc1
-2.3%	COc1cc(Cl)c(NC(=O)CN(C)S(=O)(=O)c2ccc3c(c2)CCCC(=O)N3)c(OC)c1
0.2%	CC(C)c1ccc(OCC(=O)N(Cc2ccc(N(C)C)cc2)C2CCS(=O)(=O)C2)cc1 (configuration not stated)
-4.0%	COc1cccc(CC(O)CC2c3c(cc4c(c3OC)OCO4)CCN2C)c1 (configuration not stated)
-10.3%	O=C(COC(=O)c1ccc2ncsc2c1)Nc1ccccc1Cl
1.8%	N#Cc1cc2c(nc1SCc1cccnc1)CCCC2
-4.4%	O=C(N/N=C/c1ccoc1)c1ccc(Cl)cc1
39.8µM*	O=C(/C=C/c1ccccc1)c1ccccn1
-13.5%	O=C(CSc1ccc(F)cc1)Nc1ccccc1N1CCOCC1
-0.8%	CCCCCCCCCCCCC/C=C/[C@@H](O)[C@H](COP(=O)([O-])OCC[N+](C)(C)C)NC(=O)CCCCCCCCCCCCCCCCC
7.4%	COc1ccc(S(=O)(=O)Oc2ccccc2C(N)=O)cc1
5.7%	CC(C)N(Cc1ccccc1)c1ncnc2c1nnn2C
-3.3%	O=C(COC(=O)COc1ccccc1)Nc1ccc(Br)cc1Br
4.3%	O=C(O)C1CCCN(S(=O)(=O)c2ccc(-c3ccc(=O)[nH]n3)s2)C1 (configuration not stated)
-6.9%	Cc1cccc(-c2nc(CS(=O)CC(=O)NCCc3ccc(Cl)cc3)c(C)o2)c1 (configuration not stated)
-4.6%	Cc1cc(C)c(C(=O)COC(=O)Cn2nc(-c3ccccc3)oc2=O)cc1C
-2.0%	CN(c1ccccc1)S(=O)(=O)c1cccc(NC(=O)c2cc3ccccc3oc2=O)c1
89.1µM*	COCCN1CSC(=S)N(Cc2ccco2)C1
-14.7%&-17.6%	CCCCC(=O)Nc1cccc(-c2nc3ncccc3o2)c1C
-8.3%	CC(=O)c1cccc(OCc2cc(C(=O)N3CCSCC3)no2)c1
-11.3%	CC1CCN(C(=O)CCCOc2ccc(Cl)cc2)CC1
-3.1%	CN(C)CCn1c(C(=O)Nc2ccccc2)cc2ccccc21
6.8%	Cc1ccc(S(=O)(=O)N2CCN(C(=O)CN3C(=O)NC4(CCOc5ccccc54)C3=O)CC2)cc1 (configuration not stated)
-13.5%	O=S(=O)(Nc1cccc(S(=O)(=O)N2CCCCC2)c1)c1ccc(Cl)s1
-12.5%	CC(NS(=O)(=O)/C=C/c1ccccc1)C(=O)O (configuration not stated)
1.2%	COC(=O)N1CCC2(CCCN(Cc3ccccc3)C2)CC1
5.4%	Cc1c(Br)c([N+](=O)[O-])nn1CC(=O)N1CCc2ccccc2C1
-4.5%	Cc1ccc(Cn2c(SCCN3CCOCC3)nc3c2c(=O)n(C)c(=O)n3C)cc1
-1.4%	CCCCCNC(=O)CSC1=N/C(=C\c2ccc(Cl)c(Cl)c2)C(=O)N1CC
-6.6%	CCCCN(C(=O)CCCc1nc2ccccc2c(=O)[nH]1)c1c(N)n(CCCC)c(=O)[nH]c1=O
12.2%	O=C(COC(=O)/C=C/c1ccc(F)cc1)Nc1nnc(-c2ccccc2)o1
4.3%	Cc1ccc(S(=O)(=O)N2CCN(C(=O)COC(=O)CNC(=O)c3ccccc3)CC2)c(C)c1
-4.3%	CCS(=O)(=O)Nc1cccc(-c2cn3c(n2)SCC3)c1
-9.3%	COc1ccccc1N1CCN(CC(=O)c2c(N)n(C)c(=O)n(C)c2=O)CC1
-26.8%	Cc1cccc(C)c1NC(=O)CN(C)CC(=O)Nc1sc2c(c1C(N)=O)CCC2
13.5%	O=C(CN1C(=O)NC2(CCCc3ccccc32)C1=O)N1CCCCC1 (configuration not stated)
-8.5%	COc1ccc(N=CC2=C(O)c3ccccc3C2=O)cc1
9.5%	O=C(NNC(=O)C1CC(c2cccs2)=NO1)Nc1ccc(Cl)cc1 (configuration not stated)
-13.4%	CSc1ccc(CN(C)C(=O)c2ccc(S(=O)(=O)Nc3c(C)n(C)n(-c4ccccc4)c3=O)cc2)cc1
7.9%	CSc1ccccc1NC(=O)N1CCC(CO)(CC2CCCCO2)CC1 (configuration not stated)
8.5%	CCCOc1ccc(C(=O)Nc2cc(-c3nc4cc(C)cc(C)c4o3)ccc2C)cc1
22.1%	CCc1cccc(NS(=O)(=O)c2ccc3c(c2)NC(=O)C(C)S3)c1 (configuration not stated)
-7.1%	COc1cc2c(cc1NC(=O)CSc1ccc(Cl)cc1)oc1ccccc12
-23.1%	COc1ccccc1CNC(=O)c1cc2cc3ccc(Cl)cc3nc2o1
5.3%	O=C(CCCc1c[nH]c2ccccc12)N1CCN(S(=O)(=O)c2cccs2)CC1
11.9%	COc1ccc2c(c1)c1nnc(SC(C)C)nc1n2C
9.5%	O=C(Cn1ncc2c3ccccc3n(Cc3ccc(Cl)cc3)c2c1=O)NCCCc1ccccc1
-13.9%	CCc1ccc(NC(=O)C(=O)NCCOc2ccccc2Cl)cc1
-2.4%	CCCCCCCCC1CC(C(=O)Nc2ccccc2)C(=O)O1 (configuration not stated)

Entries listed so far that bear a hit mark in VDR inhibitor:
VDR inhibitor	smiles
39.8µM*	O=C(/C=C/c1ccccc1)c1ccccn1
89.1µM*	COCCN1CSC(=S)N(Cc2ccco2)C1

A draw from above in order of heavy-atom count, largest number first.
VDR inhibitor	smiles
8.5%	CCCOc1ccc(C(=O)Nc2cc(-c3nc4cc(C)cc(C)c4o3)ccc2C)cc1
-26.8%	Cc1cccc(C)c1NC(=O)CN(C)CC(=O)Nc1sc2c(c1C(N)=O)CCC2
-8.5%	COc1ccc(N=CC2=C(O)c3ccccc3C2=O)cc1
